Screening data deposited in PubChem BioAssay by Fisher Drug Discovery Resource Center.
NPYLR7 agonist: activates Aedes aegypti NPYLR7 receptor. HEK293T NPYLR7/Galpha15, GCaMP6s calcium fluorescence. activation, % at 10 µM. hit rate 0.15% among 270,000; in the data active = activation above about 40%;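 note: 0% = vehicle and 100% = reference agonist at the receptor; some compounds past the cut are filed as inactive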
NPYLR7 agonist max-min: also measured in NPYLR7 agonist; calls as there; activation, %; measured here: Max-Min RFU normalised activation; some inactives read as strong as hits;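 span of the calcium signal over five minutes; 0% = vehicle and 100% = native peptide agonist; compound fluorescence can raise it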
Starred values were filed as active, the others as inactive; & = joins results of further samples. An excerpt. The share of hits here may be higher or lower than overall.

SMILES	NPYLR7 agonist	NPYLR7 agonist max-min
CCCNC(=O)NC(=O)COC(=O)c1ccc2ccccc2n1	-11.7	-14.5
CCCCCN(CC(=O)Nc1cc(-c2ccccc2)nn1-c1ccc(F)cc1)C(=O)Nc1ccc(Cl)cc1	-2.6	5.6
CC(C)C(=O)N1CCC(NC(=O)c2cc(C3CC3)on2)CC1	-4.8	-4.6
COC(=O)c1c(C)c(C(=O)C(C)N(Cc2ccc(F)cc2)S(=O)(=O)c2c(C)cc(C)cc2C)c(C)n1C (configuration not stated)	-6.5	3.3
CC(O)CN(Cc1c(-c2ccccc2)nn(C)c1Oc1ccccc1Cl)C(C)C (configuration not stated)	-1.4	-0.7
COc1ccc(C(C)(O)c2nc(-c3cccc(C(=O)O)c3)cs2)cc1 (configuration not stated)	4.1	1.5
COc1ccccc1CCNC(=O)CN1CN(c2ccccc2)C2(CCN(C(=O)Nc3ccccc3OC)CC2)C1=O	38.3	29.9
CN(Cc1cc(-c2ccccc2)on1)C(=O)CCc1cn2ccccc2n1	8.9	-0.9
Cc1cccc(CN2N=NC3C(=O)N(c4ccccc4)C(=O)C32)c1 (configuration not stated)	-0.2	-5.3
O=C(NC1(c2cc(F)ccc2F)CC1)C1CC2(CCNCC2)CN1 (configuration not stated)	7.6	3.9
CC(=O)N(C)c1nnc(C23CC4CC(CC(C4)C2)C3)s1	-0.2	-3.3
CC(C)c1c(C(=O)NCC2CCCO2)c(C2CC2)nn1-c1ccc(F)cc1 (configuration not stated)	5.0	15.7
COc1cc(/C=C/C(=O)Oc2coc(CSc3nc(C)cc(C)n3)cc2=O)cc(OC)c1OC	-10.9	-5.0
O=C(Cc1cccc2ccccc12)NNC(=O)c1ccco1	6.3	-1.9
N#CCSc1cn(CC(=O)N2CCCC2)c2ccccc12	-4.3	-7.7

Full records, quoted from the list:
Entry for `O=C(NC1(c2cc(F)ccc2F)CC1)C1CC2(CCNCC2)CN1` (configuration not stated) = NPYLR7 agonist: 7.6; NPYLR7 agonist max-min: 3.9
Entry for `CC(C)C(=O)N1CCC(NC(=O)c2cc(C3CC3)on2)CC1` = NPYLR7 agonist: -4.8; NPYLR7 agonist max-min: -4.6

(more compounds)
SMILES	NPYLR7 agonist	NPYLR7 agonist max-min
CNC1CCC2(CC1)OCC(C)(C)CO2	7.8	1.7
CCOc1ccc(S(=O)(=O)Oc2cccc(C=NN=C3NC(=O)C(C(C)C)S3)c2)cc1 (configuration not stated)	0.7	-4.1
CCCCNC(=O)c1cc2sc3ccccc3c2s1	-7.0	-10.7
O=C(NC1CC2CCC(C1)N2CCc1ccccc1)c1cc(C(F)(F)F)cc(C(F)(F)F)c1 (configuration not stated)	-0.2	6.2
CCc1ccc(S(=O)(=O)Nc2ccc3c(c2)N(C(C)=O)CCC3)s1	4.7	1.6
CC(=O)Nc1ccc(CN(C)c2c(C)nc3ccc(C(=O)N4CCN(c5ccccc5)CC4)cn23)cc1	5.3	-4.1
Cc1cccc(C(=O)N2CCC(C3=CCN(CC(N)=O)CC3)CC2)c1	19.5	11.1
O=C(NC(c1ccc(F)cc1)c1ccc(SCc2ccccc2)cc1)c1ccccc1-n1cccc1 (configuration not stated)	-0.5	-3.3
CN(Cc1ccsc1)C(=O)NC1CCSc2ccc(F)cc21 (configuration not stated)	-1.7	-3.2
O=C(c1ccccc1-c1ncc[nH]1)N1CCCC(C(=O)N2CCCC2)C1 (configuration not stated)	-3.1	-0.1
CCOC(=O)CSc1nnc(Cn2c(=O)sc3ccccc32)n1CCc1ccccc1	7.8	5.4
CNC(=O)Cn1nc(C(=O)N2CCCC(O)(CN(C)C)C2)cc1C (configuration not stated)	-1.0	-8.1
S=c1[nH]cnc2sc3c(c12)CCCC3	-6.5	-8.7
COC(=O)NC1CCN(c2ccccc2C(=O)NCCc2ccccc2)CC1	13.0	8.9
Cc1nc(CCNC(=O)c2cn(-c3ccccc3)nn2)nc2c1CCC2	3.3	-8.2
CC(C)=CCC/C(C)=C/CNC(=O)c1cc(N(C)C2CCCCC2)nc2ccccc12	11.5	5.3
COc1ccccc1-c1n[nH]c(=O)n1CCc1ccccc1F	13.5	12.0
COc1cccc(COC2CN(CC(C)C)C(=O)CN(C(=O)C3CC(=O)Nc4ccccc43)C2)c1 (configuration not stated)	12.7	-0.1
Cc1cccc(C(=O)NC(C(=O)NCc2ccco2)C2CCN(C(=O)c3cccc(F)c3)CC2)c1 (configuration not stated)	-4.6	0.1
COc1ccc(Cl)cc1CC1CCCNC1 (configuration not stated)	6.5&-6.2	2.3&-8.9
O=C1CCCCN1CCC(=O)N(Cc1ccsc1)CC1CCCO1 (configuration not stated)	5.3	-6.2
O=C1CCC(C(=O)Nc2ccc(Oc3ccccc3)cc2)N1 (configuration not stated)	1.0	-0.3
CCSc1nc(NC(C)C)c2cnn(CCNC(=O)c3cc4ccccc4o3)c2n1	1.8	-1.0
Cc1nnc(N2C(=N)S/C(=C\c3c(-c4ccccc4)n(C)c4ccccc34)C2=O)s1	5.9	4.2
O=C(NCCOc1ccc(-c2ccc(F)cc2)nn1)C(F)(F)F	-2.8	-3.0
Cc1ccccc1C(=O)Nc1nn(C)c2c1C(C)CC(=O)N2 (configuration not stated)	-15.1	-17.0
COc1ccc(C(=O)N(CN2CCCC2=O)c2cc(C)on2)cc1OC	8.8	5.8
Cc1sc2ncnc(NN=Cc3ccc(N4CCOCC4)s3)c2c1C	6.9	2.5
CCOC(=O)[C@@H]1[C@@H](OC)C(=O)N(Cc2ccccc2)C12CCN(C(=O)c1ccc(F)cc1)CC2	17.9	28.8
CCOC(=O)c1sc(N2C(=O)C(=O)C(=C(O)c3ccccc3)C2c2ccc([N+](=O)[O-])cc2)nc1C (configuration not stated)	3.1	2.0
Cc1cccc(-c2c(-c3ccccc3)ncn2Cc2cc(C)on2)c1	5.7	-4.4
Cc1ccc(C(C)NC(=O)CN2CCC(OCc3cccnc3)CC2)cc1 (configuration not stated)	3.4	12.7
Cc1cc(-c2ccccc2CO)nc(-c2ccccc2)n1	4.3	1.1
CCOC(=O)N1CCC(NC(=O)c2cc3n(n2)CCCN(C)C3)CC1	-1.7	-3.4
COc1ccc(C(=O)N(C)C(C)c2cccnc2)c(Br)c1 (configuration not stated)	1.2	-7.4
O=c1ccc(-c2ccccc2)nn1CCNS(=O)(=O)c1ccccc1C(F)(F)F	-0.1	-1.2
CC1CC(C)CN(C(=O)CN2C(=O)NC3(CCCCCCC3)C2=O)C1 (configuration not stated)	7.4	4.7
COc1cccc2c1OC(c1ccccc1)C([N+](=O)[O-])=C2 (configuration not stated)	0.1	-1.0
COC(=O)[C@@H]1C[C@@H](NC(=O)CN2C(=O)N(C)Cc3ccccc32)CN1C	-6.8	-10.3
CCOC(=O)C1CCCN(C(=O)C2COC3(CCCCC3)N2C(=O)c2ccccc2C)C1 (configuration not stated)	-4.8	12.4
Cc1ccccc1-n1c(SCc2ccc(C(=O)N3CCN(c4ccccc4F)CC3)cc2)nnc1-c1ccco1	16.9	13.2
CN1N=C(C(=O)NC(Cc2ccccc2)c2ccccc2)CCC1=O (configuration not stated)	-2.3	-3.0
CCOC(=O)N1CCC(NC(=O)c2ccc3oc(CCCc4ccccc4)nc3c2)CC1	13.2	11.4
COc1cccc(COC2CN(CC(C)C)C(=O)CN(C(=O)c3ccccc3F)C2)c1 (configuration not stated)	-3.2	-5.9
COCC(=O)N(C)CC(=O)Nc1ccc(Cl)c(S(=O)(=O)N2CCOCC2)c1	6.7	4.3
O=C(NCc1cccnc1)c1cccc(OC2CCN(C(=O)C3CCOC3)CC2)c1 (configuration not stated)	1.2	-1.4
CC1Cc2c(NC(=O)c3ccc(S(=O)(=O)N(C)C)cc3)nn(C)c2NC1=O (configuration not stated)	-16.1	-19.1
O=C(CCN(CCCN1CCOCC1)c1nc(-c2ccc(F)cc2)nc2ccccc12)Nc1cccc(C(F)(F)F)c1	9.1	16.9
CCCCc1ccc(N2C(=O)CC(Nc3ccc4c(c3)CCN4C(C)=O)C2=O)cc1 (configuration not stated)	-4.3	-5.4
O=c1[nH]c(=O)n(-c2ccccc2)c(O)c1C=C1C=Nc2ccccc21	-4.3	-5.7
C=CCN1C(=O)C(=Cc2c(N3CCCCC3)nc3c(C)cccn3c2=O)SC1=S	3.7	2.1
COc1cc(C2NC(=O)c3ccccc3N2C)ccc1OCc1c(C)noc1C (configuration not stated)	-3.6	-4.5
CSc1nnc(CCc2c(C)[nH]c(=O)[nH]c2=O)o1	-5.0	-10.7
Cc1ccc(CN(Cc2ccc3c(c2)OCO3)Cc2nc(C(=O)N3CCCC3)co2)c(C)c1	18.0	18.7
CCCC1(C2CCN(C(=O)Cc3ccc(SC)cc3)CC2)NC(=O)N(CCc2ccccn2)C1=O (configuration not stated)	-0.6	-7.3
Cc1ccc2nc(N(CCCN3CCOCC3)C(=O)C3COc4ccccc4O3)sc2c1 (configuration not stated)	-2.8	-5.4
O=C(Nc1ccc(I)cc1)C1COc2ccccc2O1 (configuration not stated)	2.4	2.8
COc1ccccc1C(=O)Nc1ccc(Nc2ccc(-n3ccc(C)n3)nn2)cc1	-3.8	-7.0
O=C(c1ccccc1-c1nn[nH]n1)N1CCc2[nH]cnc2C1c1ccccn1 (configuration not stated)	3.9	0.2
COC(=O)c1nc(Cl)cnc1N	-1.1	0.6

The list goes on, overlapping the part above by two compounds.
SMILES	NPYLR7 agonist	NPYLR7 agonist max-min
O=C(c1ccccc1-c1nn[nH]n1)N1CCc2[nH]cnc2C1c1ccccn1 (configuration not stated)	3.9	0.2
COC(=O)c1nc(Cl)cnc1N	-1.1	0.6
c1ccc(OCc2cn3cccnc3n2)cc1	6.0	10.7
Cc1ccc(-c2nn(CN(C)Cc3nc4ccccc4s3)c(=S)n2C)cc1	3.2	0.6
O=C(O)c1ccccc1-c1ccccc1C(=O)Nc1ccc(-c2nc3ccccc3o2)cc1	-9.4	-12.8
O=C(c1cc(=O)[nH]c2ccc(F)cc12)N1CCCC(c2ccn[nH]2)C1 (configuration not stated)	9.7	6.2
O=C(NCCSCc1ccco1)c1ccc(-c2cc(-c3cccc(C(F)(F)F)c3)n[nH]2)cc1	2.5	9.6
Cc1nc(CN(C)Cc2nc(-c3ccccc3C)oc2C)no1	3.2	1.4
COc1cccc(-c2[nH]ncc2C(=O)N2C[C@H]3CC=C(C)C[C@H]3C2)c1	0.3	-4.1
CN(C)CCN(Cc1nccn1Cc1ccc(Cl)cc1Cl)C(=O)C1CC1	-2.0	3.2
COc1cccc(C(=O)NCC2=CCCN(CC(N)=O)C2)c1	22.6	7.8
CCOc1cc(C(=O)Nc2c3c(nn2C(C)(C)C)CSC3)cc(OCC)c1OCC	-3.8	-4.3
CCCc1ccc(-c2csc(NC(=O)CCCN3C(=O)NC4(CCCC4)C3=O)n2)cc1	3.0	-5.0
Cc1ccc(S(=O)(=O)/C(C#N)=C/N2CCN(Cc3ccccc3)CC2)cc1C	-2.9	-3.7
CCCNC(=O)c1csc(CN(CCC)C(=O)Nc2c(C(C)C)cccc2C(C)C)n1	1.5	8.3
Cc1cc(N2Cc3cnn(CCO)c3C2)c2cc3c(cc2n1)OCO3	5.9	4.7
COc1cc2c(cc1NC(=O)COc1ccccc1F)oc1ccccc12	7.8	12.4

Sorted by molar mass (high to low): part of the list above
SMILES	NPYLR7 agonist	NPYLR7 agonist max-min
Cc1cccc(C(=O)NC(C(=O)NCc2ccco2)C2CCN(C(=O)c3cccc(F)c3)CC2)c1 (configuration not stated)	-4.6	0.1
O=C(c1ccccc1-c1nn[nH]n1)N1CCc2[nH]cnc2C1c1ccccn1 (configuration not stated)	3.9	0.2
CN(Cc1cc(-c2ccccc2)on1)C(=O)CCc1cn2ccccc2n1	8.9	-0.9
O=C(Cc1cccc2ccccc12)NNC(=O)c1ccco1	6.3	-1.9
CC(=O)N(C)c1nnc(C23CC4CC(CC(C4)C2)C3)s1	-0.2	-3.3
CSc1nnc(CCc2c(C)[nH]c(=O)[nH]c2=O)o1	-5.0	-10.7

Additional entries.
SMILES	NPYLR7 agonist	NPYLR7 agonist max-min
Cc1cc(C(=O)CN2CCN(S(=O)(=O)c3cccs3)CC2)c(C)n1C1CC1	0.0	-1.5
CCCC(CCC)C(=O)Nn1cnc2c(cnn2-c2ccc(C)cc2)c1=O	33.8	29.1
OCc1cccc(-c2nccnc2N[C@@H]2CCN(Cc3ccccc3)C2)c1	15.4	7.2
Cc1cc2c(cc1C(=O)N1C[C@H]3C[C@H](O)[C@@H](O)C[C@H]3C1)OCCO2	8.9	5.4
N#Cc1c(N2CCCC2=O)sc2c1CCC2	22.9	11.8
Cc1ccc(C2c3ccccc3CCN2C(=O)c2ccc(SC(F)(F)F)cc2)cc1 (configuration not stated)	0.2	0.7
CN(CC(=O)Nc1cccc(C(F)(F)F)c1)S(=O)(=O)c1cccc2cnccc12	7.7	2.0
C=CCn1c(N2CCN(Cc3ccc(Cl)cc3Cl)CC2)nc2c1c(=O)[nH]c(=O)n2C	-7.3	-6.1
Cc1ccsc1CN(Cc1c(CO)cnc(C)c1O)C1CC1	-0.9	4.5
Cc1cc(-c2ccc(Cl)cc2-n2nc(C)cc2C)nc(N)n1	0.1	2.7
N=C1SCC(=O)N1c1ncc(Cc2ccccc2F)s1	3.4	1.4
Cc1ccc(NC(=O)Nc2c(C)nc3sccn3c2=O)cc1	-0.1	-0.1
Oc1ccc(SCCCCCN2CCCCC2)cc1	-7.1	-18.7
Cc1cccc(NS(=O)(=O)c2ccc3[nH]cc(C(=O)O)c(=O)c3c2)c1	0.3	-3.0
CN(C)c1ncnc2c1CCN(C(=O)c1cc3c(Cl)cccc3[nH]1)C2	7.2	-0.8
CC1CCN(C(=O)CSc2nc(=O)n3ccccc3n2)CC1	3.8	0.6
COc1ccc(CCN(C)C(=S)Nc2c(Cl)cccc2Cl)cc1OC	-0.4	-8.7
O=C(N1CCC(Oc2ccncc2)C1)C1(c2cccc(F)c2)CC1 (configuration not stated)	3.9	1.1
